# Assay outcomes (PubChem BioAssay)
# BmaI1 enzyme – BmaI1 acyl-homoserine lactone synthase inhibition – biochemical, fluorescence intensity, with counterscreen (AID 720554). inhibition, %. hit rate 0.4% among 12,000. BmaI1 enzyme assay, fluorescence intensity; hits give high values; test concentration not given here; a few actives read low; strong numbers were not always called active;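 active = both replicates within 2 robust z-scores of the inhibited control and a quiet counterscreen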;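 note: 0% = uninhibited enzyme and 100% = inhibited control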
# BmaI1 enzyme counterscreen – second read-out of BmaI1 enzyme, no call of its own (marks repeat the call); inhibition, %; measured here: counterscreen; design of the counterscreen not given here;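 first of two replicates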
# Starred values were filed as active, the others as inactive. An excerpt, so the mix of outcomes need not match the whole.
mol	BmaI1 enzyme counterscreen	BmaI1 enzyme
O=C(OC1CCOC1=O)c1ccc(S(=O)(=O)N2CCCc3ccccc32)cc1 (configuration not stated)	6	20
Cc1ccc(N2C(=O)/C(=C\c3ccc4c(c3)OCO4)N=C2SCC#N)cc1	-6	-2
CC(C)NC(=S)N/N=C/c1ccc2c(c1)OCCO2	-26	-64
CN1[C@@H]2CC(OC(=O)[C@H](CO)c3ccccc3)C[C@H]1[C@@H]1O[C@@H]12 (some centres not stated)	0	-2
CC(c1nnc(SCC(=O)Nc2sccc2C#N)n1-c1ccc(Cl)cc1)N(C)C (configuration not stated)	8	22
COc1ccc(CCNc2ncc3c(n2)c(=O)c(C#N)c2[nH]c4ccccc4c(=O)n23)cc1OC	-6	9
CC(C)[C@H](NC(=O)c1ccccc1)C(=O)OCn1nnc2ccccc2c1=O	2	13
Cc1ccc(NC(=O)CNCC(C)(C)N2CCOCC2)c(Cl)c1	0	8
COc1ccc2c(C)cc3nnc(SCC(=O)N(C)Cc4ccco4)n3c2c1	14	28
CC1=CC(=NC(=O)c2ccco2)C(C)=CC1=O	6	80
C=CCn1c(SCC2=C(C(=O)OCC)C(C)NC(=O)N2)nnc1-c1ccoc1C (configuration not stated)	4	12
COCCn1c(C)cc(C(=O)CSc2nnc(Nc3ccccc3C)s2)c1C	15	19
C/C(CCc1ccc2c(c1)OCO2)=N\NC(=O)c1ccccc1	36	4
Cc1ccc(C)c(C(=O)OCC(=O)NC2CC2)c1	-13	16
Cc1ccc(N2C(=O)N(Cc3cc(=O)oc4cc(C)ccc34)C(=O)C2C)cc1 (configuration not stated)	10	10
Cc1nc(COC(=O)c2ccc3c(c2)S(=O)(=O)c2ccccc2C3=O)cs1	2	14
C[C@@H](C(=O)NC1=NCCS1)N1C(=O)C2CC=CCC2C1=O (some centres not stated)	9	16
CC(=O)OCC(CCn1cnc2cnc(N)nc21)COC(C)=O	-4	-1
O=C(COC(=O)c1cccc(S(=O)(=O)N2CCCC2)c1)Nc1ccc2c(c1)OCCO2	-8	-10
C/C(=N\NC(=S)Nc1cccc(C)c1C)c1ccc(S(=O)(=O)NCc2ccco2)cc1	4	32
CCOC(=O)/C(C#N)=C/c1cn(CCC#N)nc1C	0	6
COC(=O)c1cc2c(cc1Cl)N1CCCCCC1=NS2(=O)=O	6	14
c1ccc(CNC2=NCCCS2)cc1	2	4
CCOc1ccccc1C1SCC(=O)N1CCN1C(=O)S/C(=C\c2ccc(F)cc2)C1=O (configuration not stated)	8	12
CC(C)(C)C(=O)COC(=O)C1CCN(S(=O)(=O)c2cccs2)CC1	0	10
CC1CCC2(CC1)C(=O)N(S(=O)(=O)c1cccc(C(F)(F)F)c1)C(=O)N2C (configuration not stated)	12	21
CN(C)S(=O)(=O)c1cccc(COC(=O)C2=NN(c3ccccc3)C(=O)CC2)c1	-2	1
CCN1CCc2nc(NC(=O)CCc3ccccc3)sc2C1	4	3
CNC(=S)N1c2ccccc2CC1C (configuration not stated)	4	2
CC(c1nnc(SCc2nnc(-c3ccco3)o2)n1-c1ccc(F)cc1)N1CCCCC1 (configuration not stated)	3	4
Cn1nnnc1SC1CCCCN(C(=O)c2ccc(F)cc2)C1=O (configuration not stated)	-5	-6
CN(C)c1ccc(/C=c2\sc3c(C#N)cc(C(=O)c4ccccc4)n3c2=O)cc1	4	2
CC(=O)Nc1ccc(NC(=O)CNc2ccc(Br)cc2)cc1	2	6
N#CC(C#N)=C1C=C2C=C(N3CCCC3)CCC2CC1 (configuration not stated)	12	18
Cc1ccsc1C(=O)N(CC(=O)Nc1ccccc1C(F)(F)F)Cc1ccco1	-3	-4
Cc1sc2nc(CN3CCCC3)nc(NC(C)C)c2c1C	0	2
CCCn1c(=O)n(Cc2c(C)noc2C)c(=O)c2c1nc(C(F)(F)F)n2CCOC	0	25
Cc1cc(C(=O)Cn2cc(C(F)(F)F)ccc2=O)c(C)n1Cc1ccco1	1	3
N#Cc1ccccc1OCC(=O)C12CC3CC(CC(C3)C1)C2	0	4
O=C(NCCc1ccccc1)c1ccc2c(c1)OCCCO2	1	26
C=C(C)CSc1nnc(-c2cccc(S(=O)(=O)N3CCOCC3)c2)n1-c1cccc(Cl)c1	0	12
Cc1ccccc1OCCN1C(=O)NC2(CCC(C)CC2)C1=O (configuration not stated)	16	19
CC(=O)NS(=O)(=O)c1ccc(NC(=O)C2CCCN2C(=O)OC(C)(C)C)cc1 (configuration not stated)	-1	6
CC(NC(=O)CSc1nnc(-c2ccccc2)n1C)c1ccccc1 (configuration not stated)	6	13
COc1cc2c(cc1OC)C(c1cccs1)N(C(=O)c1cnn(-c3ccccc3)n1)CC2 (configuration not stated)	2	14
O=C(OCC(=O)N(C1CCCCC1)C1CCCCC1)c1ccncc1	1	8
N#Cc1ccc(NC(=O)CSC2=Nc3ccccc3C3CC=NN23)cc1Cl (configuration not stated)	0	5
CCOc1ccc(S(=O)(=O)NCCC(=O)Nc2cccc(-c3nnc4n3CCCCC4)c2)cc1	-4	-19
O=C1c2cccc3c2[C@H](CCC3)CN1[C@@H]1CN2CCC1CC2	14	6
O=C(N/N=C/c1ccc(N2CCOCC2)cc1)c1ccncc1	32	25
O=S(=O)(c1ccccc1)N(CCOc1ccc(F)cc1)c1nccs1	8	11
CC(=O)NCc1ccc(C(=O)COC(=O)c2cc(C)nc3ccccc23)o1	-4	-4
CCOC(=O)c1[nH]c(COC(=O)[C@H](C)NS(=O)(=O)c2ccc(OC)cc2)c(C(=O)OCC)c1C	2	2
CCCN(CC(=O)Nc1ccc(F)c(F)c1F)C(=O)c1cc2ccccc2o1	2	8
COc1ccc(/C=C/C(=O)N2c3ccc(C)cc3C3CN(C)CCC32)cc1 (configuration not stated)	-4	1
CC1Cc2ccccc2N1C(=O)CSc1nc2cc(Cl)ccc2o1 (configuration not stated)	15	16
CC1CN(S(=O)(=O)c2ccc(NC(=O)Cc3ccccc3F)cc2)CC(C)O1 (configuration not stated)	6	18
CCC(/C=N/Nc1nc(C)cc(C)n1)CC	11	32
Cc1cc(/C=C(\C#N)C(=O)C(C)(C)C)c(C)n1C1CCCC1	2	6
CC(C)N(C(=O)CSc1nc2ccc(Cl)cc2[nH]1)C(C)C	13	12

# Later entries
mol	BmaI1 enzyme counterscreen	BmaI1 enzyme
CC1CCc2sc(C(=O)NCCCn3ccnc3)cc2C1 (configuration not stated)	8	17
O=C(Nc1nc(-c2cccnc2)cs1)C1CCCC1	4	2
N[C@@H](C(=O)N[C@@H]1C(=O)N2C(C(=O)O)=C(CSc3cn[nH]n3)CS[C@H]12)c1ccc(O)cc1 (tested in a mixture with another compound)	6.0*	93*
CCOc1ncccc1C(=O)NCc1ccc(F)cc1	3	6
Cc1nc2sc(C(=O)N(Cc3ccco3)Cc3cccs3)c(C)c2c(=O)[nH]1	8	6
N#CCOC(=O)c1ccccc1S(=O)(=O)N1CCCCC1	10	8
Cc1c(C(=O)N(CC(F)(F)F)C(C)C2CC2)oc2c(F)cccc12 (configuration not stated)	14	15
CC(=O)Nc1nc(CSc2nnnn2-c2ccc(Cl)cc2)cs1	0	6
CCn1nc(C(=O)N2CCCSC2=Nc2ccccc2)c2ccccc2c1=O	13	22
Cc1[nH]c2ccc(C(=O)OC3CCOC3=O)cc2c1C (configuration not stated)	2	6
COC(=O)c1ccc(NC(=O)COC(=O)C2=NN(c3ccccc3)C(=O)CC2)cc1	-5	7
COC(=O)c1cccc(NC(N)=O)c1	0	14
CCC(C)(C)C(=O)O[C@H]1C[C@@H](C)C=C2C=C[C@H](C)[C@H](CC[C@@H]3C[C@@H](O)CC(=O)O3)[C@H]21	-10	-12
Cc1cc(C)n(CCCNC(=O)CSc2nc(C)c(C)n2C2CCCCC2)n1	5	23
C[C@H](NS(=O)(=O)c1ccccc1)C(=O)Nc1ccc(S(=O)(=O)N2CCCC2)cc1	8	10
O=C(Cn1c(=O)c2c(ncn2Cc2ccccc2)n(Cc2ccccc2)c1=O)NC1CC1	-1	4
CC(C)C(C)(C#N)NC(=O)CSc1nnc(SCc2ccc(Cl)cc2)s1 (configuration not stated)	8	2
Cc1cc(NC(=S)NCc2ccccc2)n[nH]1	-6	-7
CC1Cc2ccccc2N1CC(=O)NCCCc1ccccc1 (configuration not stated)	-10	22
O=C(Nc1ccc2c(c1)OCO2)C1Sc2nc(-c3ccccc3)cn2N=C1c1ccccc1 (configuration not stated)	10	16

# Continued, starting with the last 2 of the part before.
mol	BmaI1 enzyme counterscreen	BmaI1 enzyme
CC1Cc2ccccc2N1CC(=O)NCCCc1ccccc1 (configuration not stated)	-10	22
O=C(Nc1ccc2c(c1)OCO2)C1Sc2nc(-c3ccccc3)cn2N=C1c1ccccc1 (configuration not stated)	10	16
Cc1nn(-c2ccccc2)c(CSCC(=O)Nc2ccc3c(c2)OCO3)c1C#N	-4	3
O=c1cc(Cl)nc2ccc(Cl)cn12	-6	4
N#Cc1ccccc1Sc1ccccc1C(=O)N(CC1CCCO1)C1CCS(=O)(=O)C1 (configuration not stated)	2	-4
COc1ccccc1OCCC(=O)C(C#N)c1nc2ccccc2[nH]1 (configuration not stated)	2	-2
CCOC(=O)CN1CCCCCC1=O	5	4
Cn1nnnc1SCc1cccc(S(=O)(=O)N2CCOCC2)c1	12	11
CCc1cc(C(N)=S)ccn1	17	34
CC(OC(=O)NC1CCCCC1)c1cc2ccccc2o1 (configuration not stated)	8	15
Cc1ccc(NC(=O)CN(C)C(=O)CSc2n[nH]c(=O)n2Cc2ccccc2)cc1	10	11
CCOC(=O)c1oc2ccccc2c1CN1C(=O)c2ccccc2C1=O	-2	0
O=c1c2ccccc2ncn1Cc1ccccc1	0	4
CC1CN(C(=O)COC(=O)c2ccc3c(c2)C(=O)N(c2ccc(Cl)cc2)C3=O)CC(C)O1 (configuration not stated)	0	0
CNC(=O)NC(=O)CSc1nnc(-c2ccc(C(C)(C)C)cc2)n1C	-7	2
CCc1nnc(NC(=O)CN(CC)CC)s1	-8	-4
CN(C)C1(CNC(=O)Cc2ccccc2F)CCCCC1	-3	-6
CC1Cc2ccccc2N1C(=O)Cn1ncc(Cl)c(Cl)c1=O (configuration not stated)	10	12
CN(Cc1c(F)cccc1Cl)C(=O)CN1CCN(c2ncccn2)CC1	-1	12
CC(NC(=O)c1ccc[nH]c1=O)c1ccc(Cl)cc1Cl (configuration not stated)	11	18
NC1CCN(c2cccc(Cl)n2)CC1	12	0
FC(F)(F)c1cccc(Nc2nnnn2C2CCCC2)c1	7	17
NNC(=O)CSc1ccc(Cl)cc1	-82	-103
Cc1csc(=O)n1CC(=O)NC1CCC(C)CC1 (configuration not stated)	7	14
NC(=O)COC(=O)c1ccccc1Nc1ccccc1	-1	13
COc1cc2ccccc2cc1C(=O)N1CCCN(C)c2nc3ccccc3nc21	8	10
CN(Cc1ccccc1)C(=O)CSc1nnc(-c2ccccc2)o1	0	12
O=c1oc2ccc(Br)cc2cc1-c1ccc(S(=O)(=O)N2CCOCC2)s1	2	10
O=C(c1ccccc1)c1nc2ccccc2oc1=O	21	60
Cc1noc(C)c1COc1cccc(C(F)(F)F)c1	0	1
CCn1nnc2cc(C(=O)O)ccc21	-19	0
O=C(C1Cc2ccccc2CN1C(=O)c1ccccc1)N1CCN(c2ccccc2)CC1 (configuration not stated)	4	6
O=C(Nc1nc(-c2cccs2)c(-c2cccs2)s1)C1(c2ccccc2)CC1	8	16
NC(=O)CSc1nnc(Cc2cccs2)n1C1CCCCC1	-2	6
CCC(=C(c1ccccc1)c1ccc(OCCN(C)C)cc1)c1ccccc1	33	11
CC(=O)N[C@@H](C)C(=O)NCc1ccc2c(c1)OCO2	13	18
NC(=O)c1ccccc1OCc1nnc(-c2ccccc2Br)o1	8	6
Cc1ccc2nc(COC(=O)C3CCN(c4ccc(C(F)(F)F)cn4)CC3)cc(=O)n2c1	-4	6
CC(=O)NCCCCCCNC(C)=O	0	-5
Nc1nc(F)nc2c1ncn2[C@@H]1O[C@H](CO)[C@@H](O)[C@@H]1O	12	6

# Structures above with a cyano group:
mol	BmaI1 enzyme counterscreen	BmaI1 enzyme
Cc1ccc(N2C(=O)/C(=C\c3ccc4c(c3)OCO4)N=C2SCC#N)cc1	-6	-2
CC(c1nnc(SCC(=O)Nc2sccc2C#N)n1-c1ccc(Cl)cc1)N(C)C (configuration not stated)	8	22
COc1ccc(CCNc2ncc3c(n2)c(=O)c(C#N)c2[nH]c4ccccc4c(=O)n23)cc1OC	-6	9
CCOC(=O)/C(C#N)=C/c1cn(CCC#N)nc1C	0	6
CN(C)c1ccc(/C=c2\sc3c(C#N)cc(C(=O)c4ccccc4)n3c2=O)cc1	4	2
N#CC(C#N)=C1C=C2C=C(N3CCCC3)CCC2CC1 (configuration not stated)	12	18
N#Cc1ccccc1OCC(=O)C12CC3CC(CC(C3)C1)C2	0	4
N#Cc1ccc(NC(=O)CSC2=Nc3ccccc3C3CC=NN23)cc1Cl (configuration not stated)	0	5
Cc1cc(/C=C(\C#N)C(=O)C(C)(C)C)c(C)n1C1CCCC1	2	6
N#CCOC(=O)c1ccccc1S(=O)(=O)N1CCCCC1	10	8
CC(C)C(C)(C#N)NC(=O)CSc1nnc(SCc2ccc(Cl)cc2)s1 (configuration not stated)	8	2
Cc1nn(-c2ccccc2)c(CSCC(=O)Nc2ccc3c(c2)OCO3)c1C#N	-4	3
N#Cc1ccccc1Sc1ccccc1C(=O)N(CC1CCCO1)C1CCS(=O)(=O)C1 (configuration not stated)	2	-4
COc1ccccc1OCCC(=O)C(C#N)c1nc2ccccc2[nH]1 (configuration not stated)	2	-2
